# Assay outcomes deposited in PubChem BioAssay by Johns Hopkins Ion Channel Center.
# KCNQ2 enhance: potentiators of rat KCNQ2 potassium channel; O88943; CHO-K1 KCNQ2, FluxOR thallium flux fluorescence; hits give high values; B-score at 10 µM; actives 0.54% (n = 310,000); AID 2239;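 active = fluorescence ratio B-score at least 3 SD of library B-scores, with initial fluorescence B-score within 3 SD, cut at about 5.3 in these data; same plate scores as AID 2156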;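 note: B-score of peak minus minimum over baseline fluorescence ratio after K+ and Tl+ stimulus; positive B-score means potentiation of KCNQ2 with more thallium influx and brighter signal; only the inactives scoring about 0 or higher are listed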
# Target sequence (O88943 whole entry, looked up): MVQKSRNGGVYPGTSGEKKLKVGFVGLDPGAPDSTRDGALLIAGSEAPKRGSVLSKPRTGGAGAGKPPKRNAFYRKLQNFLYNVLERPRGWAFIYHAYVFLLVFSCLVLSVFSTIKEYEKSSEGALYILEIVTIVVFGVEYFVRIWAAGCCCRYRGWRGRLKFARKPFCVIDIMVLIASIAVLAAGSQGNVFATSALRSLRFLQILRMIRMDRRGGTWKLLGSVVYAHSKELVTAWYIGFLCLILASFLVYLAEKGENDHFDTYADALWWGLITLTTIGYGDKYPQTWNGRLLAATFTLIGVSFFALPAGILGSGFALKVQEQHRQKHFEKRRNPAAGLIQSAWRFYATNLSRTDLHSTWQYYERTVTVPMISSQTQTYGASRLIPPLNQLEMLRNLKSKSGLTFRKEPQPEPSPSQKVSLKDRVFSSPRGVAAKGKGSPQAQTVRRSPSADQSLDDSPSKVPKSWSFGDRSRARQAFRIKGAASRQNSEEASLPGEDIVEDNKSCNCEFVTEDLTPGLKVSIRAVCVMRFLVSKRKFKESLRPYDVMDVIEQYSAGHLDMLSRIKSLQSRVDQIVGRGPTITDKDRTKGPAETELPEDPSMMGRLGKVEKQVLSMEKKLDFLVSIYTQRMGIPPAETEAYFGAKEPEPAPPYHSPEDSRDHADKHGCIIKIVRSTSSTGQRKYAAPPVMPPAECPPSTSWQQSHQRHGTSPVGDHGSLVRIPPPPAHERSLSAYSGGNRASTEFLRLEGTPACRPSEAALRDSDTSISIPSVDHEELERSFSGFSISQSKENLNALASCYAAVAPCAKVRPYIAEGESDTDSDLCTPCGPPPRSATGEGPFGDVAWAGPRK
# KCNQ2 enhance baseline: second read-out of KCNQ2 enhance, no call of its own (marks repeat the call); B-score; compound at 10 µM; measured here: initial fluorescence intensity artifact check;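 brightness before thallium and not channel activity; 0 = typical well and far values either way flag optical interference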
# Active calls of the source: *. An excerpt; rates above refer to the full screens.
SMILES | KCNQ2 enhance | KCNQ2 enhance baseline
O=C(Nn1cnnc1)c1ccc(Cl)c(Cl)c1 | 1.38 | 0.36
Cc1ccc(NC(=O)CN(C)CC(=O)Nc2c(C)cccc2C)c(Br)c1 | 0.1 | -0.11
CC(=O)Nc1cccc(Oc2cnc3ccccc3n2)c1 | 0.61 | 0.35
O=C(COC(=O)CCCN1C(=O)c2ccccc2C1=O)Nc1ncc(Cl)cc1Cl | 0.3 | -0.04
Brc1ccccc1OCCCCCN1CCOCC1 | 0.98 | -1.08
NC(=O)c1cc(N=Nc2c(N)[nH]n(-c3c(Cl)cc(Cl)cc3Cl)c2=O)ccc1Cl | 0.45 | -0.84
C=CCOc1cccc(/C=C\c2nc(O)c([N+](=O)[O-])c(=O)[nH]2)c1 | 0.61 | 2.19
Cc1cccc(C(=O)NNC(=O)c2cc3cc4ccccc4nc3s2)c1 | 0.75 | 0.74
O=C(Nc1ccc(Br)cc1)C1C2C=CC3(O2)C1C(=O)N(CCN1CCCCC1)C3C(=O)NC1CCCCC1 (stereo not given) | 1.57 | 0.78
CCOC(=O)c1c(NC(=O)COC(=O)CNC(=O)c2ccco2)sc(C(C)=O)c1C | 1.16 | 2.14
Cc1cc(NC(=O)Cn2cnc3c(nnn3-c3cccc(F)c3)c2=O)no1 | 1.14 | -0.2
O=C(NC1(C(F)(F)F)NC(=O)N(CC2CCCCC2)C1=O)c1ccco1 (stereo not given) | 0.09 | 0.43
COc1ccc(-c2cn(-c3ccccc3)nc2CO)cc1 | 2.83 | 2.4
Cc1nc(CNS(=O)(=O)c2ccc3c(c2)OCCO3)cs1 | 0.69 | -1.08
C/C(=N\N1CCN(C)CC1)c1ccc(Cl)c(Cl)c1 | 0.48 | 0.97
COc1ccc(C(=O)Nc2nc3ccc(S(C)(=O)=O)cc3s2)cc1OC | 0.58 | -0.08
CCN1CCN(CCCNC(=O)c2ccc3c(Cl)c4c(nc3c2)CCCC4)CC1 | 2.05 | -0.02
COc1ccc(C(=O)Nc2cc(C)c3c(=O)oc4ccccc4c3n2)cc1 | 0.33 | -1.36
CNC(=O)CCCN1C(=O)c2ccccc2Sc2ncccc21 | 0.13 | 0.21
Cn1c(=O)oc2cc(S(=O)(=O)NCCN3CCN(c4ccccc4F)CC3)ccc21 | 0.56 | -1.64
COc1ccc(Cl)cc1NC(=O)Cn1c(=O)n2nc(C)nc2c2ccccc21 | 0.02 | -0.69
CN1CCN(CCCN(Cc2cccs2)C(=S)Nc2ccc(Cl)cc2)CC1 | 1.36 | -1.03
COc1ccc2c(c1)sc(=N)n2C | 0.82 | -0.5
NC(=O)c1ccc(NC(=O)c2cncn2-c2ccccc2)cc1 | 2.59 | -0.03
COCCn1c(=NC(=O)c2ccc(S(=O)(=O)N3CCOCC3)cc2)sc2cc(S(N)(=O)=O)ccc21 | 1.13 | -1.57
COc1ccccc1C(=O)NC(=O)Nc1cccc(Cl)c1 | 1.21 | -0.25
C=CCNCc1ccc(C(=O)NCCCCCCC)cc1[N+](=O)[O-] | 1.39 | -0.29
COc1ccc(-n2c(=O)cc(N3CCCCCC3)[nH]c2=O)cc1 | 1.43 | 1.04
COc1ccc2oc(=O)c(C(=O)Nc3ccccc3C)cc2c1 | 0.03 | -0.6
CCCc1nnc(SCC(=O)NC2CCCCC2)n1CCOC | 1.41 | 1.89
COCC(C)n1c(SCC(=O)NNC(=O)c2ccc(F)cc2)nc2ccccc2c1=O (stereo not given) | 1.48 | -0.26
C#CCOCCOCCOCCNc1nc(N2CCN(C(=O)[C@H](CCC(=O)O)n3cc(C(N)CC(C)C)nn3)CC2)nc(N2CCN(C(=O)[C@H](CCC(=O)O)n3cc(C(N)CC(C)C)nn3)CC2)n1 (stereo not given in full) | 0.19 | 0.96
CCN(CC)CCNC(=O)C(=O)Nc1ccc(C(=O)OC)cc1 | 0.87 | 0.98
Cc1cc(Nc2ccc(C(=O)O)cc2)n2nc(C)nc2n1 | 0.12 | -1.03
COc1ccc(-c2sc(Nc3ccccc3)n[n+]2C)c(C)c1C | 0.93 | 0.99
CC(C)NC(=O)CS(=O)(=O)c1ccccc1 | 0.53 | 0.04
CC1CCC2C(C1)c1sc(=O)[nH]c1SC2(C)C (stereo not given) | 1.19 | -1.34
O=C(CSc1nnc(NC(=O)c2c(F)cccc2F)s1)NC1CCCCC1 | 0.9 | 1.18
CCCn1c(SCC(=O)Nc2cccc(C(=O)OC)c2)nnc1-c1cccnc1 | 1.31 | 1.39
CC(C)CC(=O)NNC(=S)NCc1ccco1 | 0.49 | -0.02

# Some of these compounds in order of length of the SMILES, rising:
SMILES | KCNQ2 enhance | KCNQ2 enhance baseline
CC(C)NC(=O)CS(=O)(=O)c1ccccc1 | 0.53 | 0.04
CC1CCC2C(C1)c1sc(=O)[nH]c1SC2(C)C (stereo not given) | 1.19 | -1.34
Cc1cc(Nc2ccc(C(=O)O)cc2)n2nc(C)nc2n1 | 0.12 | -1.03
CCN(CC)CCNC(=O)C(=O)Nc1ccc(C(=O)OC)cc1 | 0.87 | 0.98
CCCn1c(SCC(=O)Nc2cccc(C(=O)OC)c2)nnc1-c1cccnc1 | 1.31 | 1.39

# Continuation.
SMILES | KCNQ2 enhance | KCNQ2 enhance baseline
O=C(CCC(=O)c1cccs1)Nc1ncccc1O | 0.2 | -0.67
COc1nsnc1N1CCOCC1 | 0.67 | 0.99
Clc1ccc(-c2c(C3=NCCCN3)nnn2-c2ccc(Cl)cc2)cc1 | 1.86 | -0.03
NC(=O)c1cc([N+](=O)[O-])ccc1NCCN1C(=O)c2ccc(C(=O)O)cc2C1=O | 2.12 | -2.8
CCOC(=O)c1sc(=S)n(C)c1N | 0.38 | -0.01
COc1ccc(/C=N/n2c(SC)nnc(C(C)(C)C)c2=O)c(OC)c1 | 1.56 | -1.22
CCCNC(=O)NC(=O)COc1ccc2oc3ccccc3c2c1 | 0.19 | 0.27
CCOc1ccc2nc(SCC(=O)Nc3cccc(S(=O)(=O)NC4=NCCCCC4)c3)[nH]c2c1 | 0.48 | 0.17
Cc1ccc(-n2c(SCC(=O)N/N=C/c3ccccc3C(=O)O)nnc2-c2ccc(Cl)cc2)cc1 | 0.82 | -0.41
CSc1cccc(NC(=O)C2C3C=CC4(O3)C2C(=O)N(CCN2CCOCC2)C4C(=O)NC2CCCCC2)c1 (stereo not given) | 0.87 | 0.46
N#Cc1cc2c(=O)n3ccccc3nc2n(Cc2cccnc2)c1=O | 0.22 | 2.25
Cc1c(C(=O)N2CCCCC2)c(S(=O)(=O)NCCc2ccc(Cl)cc2)c(C)n1C | 0.38 | -1.15
O=C(CCc1ccccc1)Nc1ccc(N2CCCCC2)cc1 | 0.15 | -1.68
CS(=O)(=O)N1CCC(C(=O)N2CCC(Cc3ccccc3)CC2)CC1 | 1.8 | 1.17
COc1ccc(CNC(=O)COC(=O)c2cncc(Br)c2)cc1 | 2.26 | -0.03
O=[N+]([O-])c1ccc(S(=O)(=O)Nc2ncccn2)cc1 | 0.42 | 0.75
CC(=O)N1c2ccc(S(=O)(=O)N(C)CC(=O)Nc3ccccc3C)cc2CC1C (stereo not given) | 1.36 | -1.48
COC(=O)Cn1cnc2c(nnn2-c2ccc(OC)cc2)c1=O | 0.71 | -0.82
CSc1nc(N)n(-c2cc(C(F)(F)F)ccn2)n1 | 1.34 | -1.91
Cc1cc(C)cc(-n2nnc(C(=O)NCc3ccco3)c2N)c1 | 1.04 | -0.87
Cc1ccc(C(=O)Sc2cccccc2=O)cc1 | 11.2* | 1.35*
CN(C)S(=O)(=O)c1ccc(Cl)c(NC(=O)COC(=O)CCC(=O)c2cccs2)c1 | 0.9 | 0.19
Cc1c(C(=O)N/N=C/C(C)C)[nH]c2c([N+](=O)[O-])cccc12 | 0.23 | 0.37
CC(CC(=O)O)CC(=O)NNC(=O)c1cccc(Br)c1 (stereo not given) | 1.05 | 0.34
CCCNC(=O)N1CCN(S(=O)(=O)c2ccc(C)c(C)c2)CC1 | 2.21 | -0.69
C/C(=N\NC(=O)C(O)c1ccccc1)c1ccc(Cl)cc1 (stereo not given) | 0.78 | -0.03
CCC(C)c1ccc(NC(=O)Nc2cccnc2)cc1 (stereo not given) | 4.69 | 0
CCOC(=O)c1cnn(-c2ncnc3c2cnn3C)c1N | 0.05 | 2.46
Cc1ccc(O)c(NC(=S)NC(=O)COc2ccc(Br)cc2)c1 | 1.36 | -0.64
CCOc1ccc(S(=O)(=O)N(CC(=O)N2CCc3ccccc32)Cc2ccco2)cc1 | 0.28 | -0.69
CC1CCCCC1NC(=O)CCCn1c(=S)[nH]c2ccccc2c1=O (stereo not given) | 1.01 | -0.01
COc1cc(-c2cc(C(=O)NN3CCN(C)CC3)c3ccccc3n2)cc(OC)c1OC | 0.78 | -0.01
CCCOc1ccc(C(=O)N2CCN(c3ccc(N)cc3Cl)CC2)cc1 | 0.03 | 0.03
CC(=O)NCCC(=O)N1CCCC(C(=O)c2ccc3c4c(cccc24)CC3)C1 (stereo not given) | 0.05 | -0.5
CN1CCN(C(=O)/C=C/c2c(F)cccc2Cl)CC1 | 0.12 | -1.35
COc1ccc(CNS(=O)(=O)c2ccc3c(c2)N(C(C)=O)CCO3)cc1 | 0.84 | 0.99
CCN(CCC#N)c1ccc(N2C(=O)CCCC2=O)cc1[N+](=O)[O-] | 0.55 | -0.7
Cc1c(NC(=O)C23CC4CC(CC(Br)(C4)C2)C3)c(=O)n(-c2ccccc2)n1C | 1.08 | 0.21
O=C(Nc1ccc(Cl)cc1)Nc1ccc(C(=O)N2CCOCC2)cc1 | 0.01 | 0.79
C[N+](C)(C)CCCCCCCCCC[N+](C)(C)C | 0.24 | 0.55
COc1ccc(Cl)cc1NC(=O)Nc1cn(C)nc1C | 0.84 | 0.17
OCc1nc2ccccc2n1C/C=C/c1ccccc1 | 0.1 | 2.96
CC(=O)N1C(C(=O)O)Cc2c([nH]c3ccccc23)C1(C)C (stereo not given) | 7.28* | 0.2*
Nc1nc2c(F)c(F)c(F)cc2s1 | 1.31 | 0.68
N#CC1=C(SCC(=O)c2ccccc2)NC2=C(C(=O)CCC2)C1c1ccco1 (stereo not given) | 1.59 | 0.06
COc1ccc(OC)c(S(=O)(=O)N2CCC(c3nc4ccccc4[nH]3)CC2)c1 | 0.15 | -0.02
CCCCCN=C(N)N/N=C/c1c[nH]c2ccc(OC)cc12 | 8.75* | 3.61*
Cc1c(C)c2cc3c4c(oc3c(C)c2oc1=O)CCCC4 | 0.85 | 0
Cc1ccccc1OCCC(=O)Nc1ccccc1C(=O)NC1CC1 | 1.4 | -0.11
Cc1cc(C)nc(-n2ncc3c2CC(c2ccc(F)cc2)CC3=O)n1 (stereo not given) | 1.36 | 0.35
CCc1ccc(C(=O)COC(=O)c2cnc(C)cn2)cc1 | 0.51 | -0.26
Cc1ccc(S(=O)(=O)N(Cc2ccc(F)cc2)C(=O)N2CCN(C)CC2)cc1 | 0.05 | 0.31
Cc1ccccc1OC1CCN(C(=O)C2CCC(=O)N(C3CCCC3)C2)CC1 (stereo not given) | 0.66 | -0.77
Cc1ccc(C(=O)NC2=NCCS2)cc1 | 0.84 | 1.69
COCCNC(=O)COC(=O)c1ccc(S(=O)(=O)N2CCOCC2)cc1 | 0.17 | -0.72
Cc1ccc2oc(-c3cc(NC(=O)c4ncn[nH]4)ccc3O)nc2c1 | 0.38 | -0.47

# The listing continues.
SMILES | KCNQ2 enhance | KCNQ2 enhance baseline
O=C(CSc1nnc(-c2ccccc2)n1Cc1ccccc1)NNC(=O)c1ccccc1O | 0.92 | 0.21
CN(c1ccccc1)S(=O)(=O)c1cccc(C(=O)Nc2ncn[nH]2)c1 | 0.48 | -0.19
Cc1cc2nc(CCN(Cc3cccnc3)C(=S)Nc3ccccc3)[nH]c2cc1C | 0.5 | -0.31
COc1ccc(-c2nc(CS(=O)CC(=O)NCc3ccc(C)cc3)c(C)o2)cc1OC (stereo not given) | 0.72 | 2.2
Cc1ccc(S(=O)(=O)Nc2nc(C)c(C(=O)NN)s2)cc1 | 2.81 | 0.13
CCOC(=O)c1csc(NC(=O)CN2CCN(C)CC2)n1 | 1.41 | -0.58
Cc1ccc2nc(C(F)(F)F)c(C#N)c(N)c2c1 | 0.01 | 1.48
Fc1ccc(CNC(=S)NC2CCCCC2)cc1 | 2.54 | -0.02
CCN(CC(=O)Nc1ccc2c(c1)OCCO2)C(=O)/C=C/c1cccc(OC)c1OC | 0.33 | 0.4
O=C(COC(=O)c1cc2ccccc2cc1O)c1ccccc1 | 2.85 | -0.87
N#Cc1ccccc1OCC(=O)Nc1ccccc1C(=O)NC1CC1 | 0.5 | 0.83
O=C(Nc1ccccc1)c1ccc(CSc2ccccn2)cc1 | 1.87 | -0.94
CC1Cc2ccccc2N1C(=S)Nc1cccc(S(=O)(=O)N(C)C)c1 (stereo not given) | 0.04 | -0.47
CCn1cc(C(=O)Nc2ccc3c(c2)OCCO3)c2cc(OC)c(OC)cc2c1=O | 1.17 | 0
COc1cccc(C2Nc3ccccc3NC3=C2C(=O)CC(C)(C)C3)c1OC (stereo not given) | 0.45 | 0.69
CCOC(=O)N1CCN(S(=O)(=O)CCNC(=O)c2ccc(F)cc2)CC1 | 0.91 | -1.89
Cc1cc(NC(=S)N(CCCN2CCOCC2)Cc2ccco2)ccc1Cl | 0.06 | -2.74
Cc1cc(C)c(NC(=O)COC(=O)C2=COCCO2)c(Cl)c1 | 2.96 | 1
Cn1nc(C(=O)NCCc2ccc(S(N)(=O)=O)cc2)c2c1-c1ccccc1S(=O)(=O)C2 | 0.26 | -1.75
CS(=O)(=O)c1ccc(Cl)c(NC(=O)c2cc(S(=O)(=O)N3CCOCC3)ccc2N2CCCC2)c1 | 0.25 | 0.19
O=C(N/N=C/c1ccc([N+](=O)[O-])cc1)c1cccc(N2CCCC2=O)c1 | 0.07 | 1.41
CCC(=O)N1CN(S(=O)(=O)c2ccc(C)cc2)CC1C (stereo not given) | 1.52 | -1.3
CCOP(=O)(OCC)C(NC(=O)c1cccs1)c1ccccc1 (stereo not given) | 0.15 | 1.51
